Vaccinia mCherry = vaccinia inhibition (mCherry reporter); AID 720579; 310,000 tested, 0.63% active; Vaccinia virus mCherry reporter infection, fluorescence; about a quarter of the inactives have no number; Potency, µM (series often up to 36.5 µM), inactives show at the highest dose activity change, negative = inhibition, usual class: inhibitors; active = well fitted inhibition curve with a large enough effect; inconclusive = small, poorly fitted or top-dose-only effect; inactive = no such curve, though single readings can be large or run the other way; tested in A549 cells; further: nearly all actives have a fitted effect of over 35% in size; inactives centre near -10
VACV Venus inh = inhibitors of vaccinia virus (Venus reporter); Vaccinia virus Venus reporter expression, fluorescence; Potency, µM (series often up to 36.5 µM), for inactives: at the top dose activity change, negative = inhibition, hits mostly inhibitors; 330,000 tested, 0.46% active; AID 720580; active means well fitted inhibition curve with a large enough effect; inconclusive means small, poorly fitted or top-dose-only effect; inactive means no such curve, though single readings can be large or run the other way; tested in A549 cells; further: nearly all actives have a fitted effect of over 30% in size; inactives centre near -10
Active calls of the source: *; i = inactive; ? = inconclusive; / = not tested or not shown; [ ] = remark or other dose. On the % scale 0 is the no-effect control and ±100 the full control effect; potency means the concentration at half of the fitted maximal effect.

SMILES	Vaccinia mCherry	VACV Venus inh
C[C@H](NC(=O)c1nc[nH]c1C(=O)NC(c1ccccc1)c1ccccc1)C(=O)OC(C)(C)C	?	?
N#C/C(=C\C=C\c1ccccc1)C(=O)Nc1ccccc1	-5%	10%
CC(C)c1nc2c(s1)CCc1onc(-c3ccc(Cl)cc3)c1-2	i	-9%
Brc1ccc2oc3c(N4CCOCC4)ncnc3c2c1	-5%	3%
CC(=O)N1CCc2cc(Br)cc(S(=O)(=O)N3CCCCCC3)c21	-21%	-18%
COc1ccc(CCNC(=O)CSc2nc(-c3ccco3)cc(C(F)(F)F)n2)cc1	-9%	-7%
COC(=O)c1nnn(Cc2ccccc2)c1N	i	-3%
COc1ccc(CN2C(=O)N(c3ccccc3)C(=O)C2CC(=O)Nc2ccccc2)cc1OC (stereo not drawn)	i	-12%
CCCCN(NC(C)=O)c1nc(Cl)nc(NC(C)C)n1	-16%	-14%
CCOC(=O)c1cccc(NC(=O)c2cccs2)c1	/	-16%

Compound profiles (already shown). Values in the order: Vaccinia mCherry | VACV Venus inh
`C[C@H](NC(=O)c1nc[nH]c1C(=O)NC(c1ccccc1)c1ccccc1)C(=O)OC(C)(C)C` in the list: ? | ?
`Brc1ccc2oc3c(N4CCOCC4)ncnc3c2c1` in the list: -5% | 3%
`CCCCN(NC(C)=O)c1nc(Cl)nc(NC(C)C)n1` in the list: -16% | -14%
`COC(=O)c1nnn(Cc2ccccc2)c1N` in the list: i | -3%
`COc1ccc(CN2C(=O)N(c3ccccc3)C(=O)C2CC(=O)Nc2ccccc2)cc1OC` (stereo not drawn) in the list: i | -12%

(more compounds)
SMILES	Vaccinia mCherry	VACV Venus inh
COc1ccc(OC)c(N=Cc2c(O)[nH]c3ccccc23)c1	?	-9%
O=C(COC(=O)c1ccc2c(c1)OCCO2)Nc1cccc(S(=O)(=O)N2CCOCC2)c1	i	-5%
CCOc1cc(/C=C2/C(=N)N3N=C(CC)SC3=NC2=O)ccc1OC(=O)c1ccco1	-7%	2%
CCOC(=O)C1CCc2nc3ccccc3c(=O)n21 (stereo not drawn)	3%	7%
Cc1onc(-c2ccccc2Cl)c1C(=O)OCC(=O)Nc1ccc2c(c1)OCO2	?	?
Cc1sc(=NC(=O)c2ccco2)n(C)c1-c1ccccc1	-2%	-23%
C[n+]1c2cc(N)ccc2cc2ccc(N)cc21 (tested in a mixture with another compound)	/	?
NS(=O)(=O)c1ccc(CNC(=O)c2cc(-c3ccccc3)nc3ccccc23)cc1	-12%	-7%
COc1ccc(NC(=O)CSc2nc3scc(C)c3c(=O)[nH]2)cc1	-13%	-7%
COc1ccc(NC(=O)C(NC(=O)c2ccc(=O)[nH]c2)c2ccc(OC)cc2)cc1 (stereo not drawn)	i	-7%
COc1ccc(-c2cc3c(=O)n(CC(=O)NCCCc4ccccc4)ncn3n2)cc1	i	-11%
OCC[C@H]1C[C@@H](O)[C@H](O)[C@]2(CCCO2)O1	-15%	-14%
Cc1ccc(S(=O)(=O)N2CCOCC2)cc1NC(=O)Cn1c(=O)ccn(Cc2ccccc2)c1=O	i	-9%
O=C(CSc1nc2ccccc2c(=O)n1Cc1ccco1)NCCN1C(=O)CSC1=O	-12%	0%
CCOC(=O)c1ccccc1NC(=O)c1sc2ncn(CC)c(=O)c2c1C	4%	1%
COC(=O)c1cc(OCC(=O)Nc2ccc3c(c2)CCC3)cc(C(=O)OC)c1	-15%	-4%
CC(=NCCCNC1CCCCC1)C1=C(O)CC(C)(C)CC1=O	-10%[1.46 µM]	-8%
COc1ccccc1-n1c(CNC(=O)COc2ccccc2)n[nH]c1=S	-2%	-2%
COc1ccc(N2CCN(S(=O)(=O)c3cc4c5c(c3)C(C)C(=O)N5CCC4)CC2)cc1 (stereo not drawn)	-22%	-17%
CC(=O)N(C(C)=O)c1nc2nc(C)cc(C)n2n1	-9%	-7%
C=CCN(c1ccccc1OC)S(=O)(=O)c1cccc(C(=O)NCc2cccs2)c1	-30%	-29%
O=C(NCc1ccccc1C(F)(F)F)C1CC(c2cccc(F)c2)=NO1 (stereo not drawn)	-14%	-3%
CCc1c(-c2ccccc2)nc2sc3c(c2c1N)CCCC3	?	?
COc1ccc(NC(=O)c2oc3ccccc3c2CSC)cc1S(=O)(=O)N1CCOCC1	-11%	-9%
CCOc1ccc(S(=O)(=O)Nc2ccccc2C(=O)NCc2ccco2)cc1	0%	-18%
COc1ccc(-c2nc(CSCC(=O)N3CCc4ccccc4C3)c(C)o2)cc1OC	-17%	-5%
Cc1ccc(C)c(NC(=O)NCc2ccccn2)c1	i	-8%
COc1ccc(NC(=O)Cn2c(=O)n(Cc3nc(-c4ccccc4)no3)c(=O)c3ccccc32)cc1Cl	?	-29%
Cc1ccc2nc3c(cc2c1)c(NC(=O)c1ccco1)nn3CC(C)C	i	-14%
O=C(c1ccco1)N1CCN(C(=O)c2cc3ccccc3oc2=O)CC1	-9%	-9%
O=S(=O)(c1cccc(F)c1)N1CCCN(c2ccc(C(F)(F)F)cn2)CC1	-29%	-19%
O=C(OCn1nnc2ccccc2c1=O)C1=COCCO1	-9%	-8%
COc1ccc(NC(=O)C2CCCN2C(=O)OC(C)(C)C)cc1 (stereo not drawn)	i	-8%
CCOC(=O)c1c(-c2ccc(OC)c(OC)c2)csc1NC(=O)c1ccc(C)cc1	-11%	1%
COc1ccc(CN2[C@@H](CC(=O)O)c3ccc(/C=C/C(=O)O)cc3S2(=O)=O)cc1	i	-16%
N#CCSc1nccc(-c2cc(Cl)sc2Cl)n1	-3%	-21%
CCN(CC(=O)Nc1ccc(NC(C)=O)cc1)C(=O)C1(c2ccccc2)CC1	-13%	-8%
CCCCN(C)C(=O)c1sc2ncn(CC)c(=O)c2c1C	/	-16%
O=C(Cn1nc2n(c1=O)-c1ccccc1SC2)N/N=C/c1ccncc1	-1%	-19%
CCNC(=O)N(CC)C[C@H]1N[C@@](Cc2ccccc2)(C(=O)OC)[C@H]2C(=O)N(Cc3ccccc3)C(=O)[C@@H]12	-11%	-5%
Cc1ccc(C(C)C)c(OCC(=O)NNC(=O)Cc2ccc(S(=O)(=O)N3CCOCC3)s2)c1	-11%	-2%
CCC(C)NC(=O)C(CCSC)NC(=O)c1ccccc1 (stereo not drawn)	i	-13%
CCOC(=O)C1=C(C)OC(N)=C(C#N)C1c1cc2ccccc2nc1N1CCCCC1 (stereo not drawn)	-11%	1%
CNCCc1c[nH]c2ccccc12	i	-5%
COc1cc2c(cc1OC)-c1cc(NC3CCCCCCC3)nc(=O)n1CC2	-15%[1.46 µM]	-27%
Cc1c(C)c2c(OCC(=O)NC3CC3)cc3c(c2oc1=O)CCC(C)(C)O3	-4%	-6%
O=C(Cc1n[nH]c(=O)c2ccccc12)N1CCN(c2ccc(F)cc2)CC1	i	-3%
Cc1cc(C(=O)OCC(=O)c2c(N)n(C)c(=O)n(C)c2=O)c(C)o1	/	-12%
COc1cccc(NC(=O)CCNS(=O)(=O)c2cccc3nsnc23)c1	i	0%
CCOC(=O)c1cn2cccnc2n1	-20%	-15%

More results follow.
SMILES	Vaccinia mCherry	VACV Venus inh
CCCn1nc(C(=O)OCC(=O)Nc2cccc(S(N)(=O)=O)c2)c2ccccc2c1=O	-9%	-5%
CCN(CC)S(=O)(=O)c1ccc(-c2nnc(SCC(=O)Nc3nc(C)cs3)o2)cc1	5µM*	11µM*
Cc1cc(C)cc(C(=O)NC(CC(N)=O)c2ccc(N3CCC(Br)CC3)c([N+](=O)[O-])c2)c1 (stereo not drawn)	-4%	-12%
COc1ccc(CCNC(=O)C(=O)NCC(c2cccnc2)N2CCN(c3ccccc3)CC2)cc1 (stereo not drawn)	-22%	-24%
COc1cc2nc(CN(C)Cc3ccc(Cl)cc3)[nH]c(=O)c2cc1OC	5%	-2%
O/N=C/c1ccccc1OCc1ccccc1Cl	-29%	-28%
CCOC(=O)C1=C(c2ccccc2)Nc2ncnn2C1c1cccc(OC)c1OC (stereo not drawn)	/	-14%
CCCN1CCN(C(=O)CN2C(=O)CC(C)(C)S(=O)(=O)c3ccccc32)CC1	-13%	-5%
COc1ccc(N2CCN(C3CCCN(C(=O)CN4CCCCC4=O)C3)CC2)cc1 (stereo not drawn)	-11%	-19%
CCOc1cccc(OCCOCCN(C)C)c1	i	-12%

A second format for part of the listing above.
Order of results – Vaccinia mCherry | VACV Venus inh
> Cc1cc(C)cc(C(=O)NC(CC(N)=O)c2ccc(N3CCC(Br)CC3)c([N+](=O)[O-])c2)c1 (stereo not drawn)
 : -4% | -12%
> O/N=C/c1ccccc1OCc1ccccc1Cl
 : -29% | -28%
> COc1cc2nc(CN(C)Cc3ccc(Cl)cc3)[nH]c(=O)c2cc1OC
 : 5% | -2%

Next part.
SMILES	Vaccinia mCherry	VACV Venus inh
COc1ccc(C2SCC(=O)N2CCCN(C)C)cc1 (stereo not drawn)	/	-11%
CC(=O)Nc1cccc2c1C(=O)N(c1ccc(OC(C)=O)cc1)C2=O	1%	1%
O=C(O)c1cccc(N2C(=O)c3ccc(C(=O)c4cccc([N+](=O)[O-])c4)cc3C2=O)c1	-19%	17%
O=C(COC(=O)c1ccc(F)cc1F)Nc1cccc(S(=O)(=O)N2CCOCC2)c1	-23%	-9%
CCc1ccc(N2CC(C(=O)NCc3ccc4c(c3)OCO4)CC2=O)cc1 (stereo not drawn)	-15%	-19%
Cc1ccc(CN2CC(C(=O)Nc3ccc(S(=O)(=O)N4CCCCC4)cc3)CC2=O)cc1 (stereo not drawn)	?	-28%
Cc1ccccc1N1CCN(C2CCCN(C(=O)CCN3CCCCO3)C2)CC1 (stereo not drawn)	-11%	-6%
CCCCN1CC(N2CCN(C)CC2)CS1(=O)=O (stereo not drawn)	25%	4%
Cc1c(Cl)cccc1NC(=O)C1NC(=O)CC1c1ccccc1 (stereo not drawn)	-5%	-10%
CCOC(=O)CC(=O)CSc1ncnc2c1nnn2-c1ccc(OC)cc1	4%	6%
CC(C)N(CCNC(=O)c1ccc(OCC2CCCO2)cc1)C(C)C (stereo not drawn)	i	-9%
CCC1OC(=O)C(C)[C@@H](O[C@H]2C[C@@](C)(OC)C(O)C(C)O2)C(C)[C@@H](O[C@@H]2OC(C)CC(N(C)C)C2O)[C@](C)(O)CC(C)/C(=N\OCOCCOC)[C@H](C)C(O)[C@]1(C)O (stereo partly drawn)	-26%	-10%
CC(CO)N1CCS(=O)(=O)CC1 (stereo not drawn)	-5%	-13%
COc1ccc(N2CCN(C(=O)CSc3nnc(NC(=O)C4CCC4)s3)CC2)cc1	1%	10%
CC(C)OCCCN1C(=O)c2[nH]nc(-c3ccccc3O)c2C1c1cccc(Cl)c1 (stereo not drawn)	?	-29%
Cc1ccccc1NC(=O)CSc1n[nH]c(-c2ccccn2)n1	6.3µM*	-22%
O=C(NCc1ccco1)c1ccc2c(c1)N(Cc1ccc(F)cc1)C(=O)c1ccccc1S2(=O)=O	-16%	-5%
CC(=O)c1ccc(NC(=O)c2cc(-c3cccs3)on2)cc1	-15%	1%
COc1ccc(C(=O)N(Cc2ccc(C(C)C)cc2)C2CCS(=O)(=O)C2)cc1 (stereo not drawn)	-10%	-14%
O=C(c1ccco1)N1CCN(C(c2ccccc2)c2nnnn2C2CCCC2)CC1 (stereo not drawn)	/	?

The closing four records of the section above come first, to join the parts.
SMILES	Vaccinia mCherry	VACV Venus inh
O=C(NCc1ccco1)c1ccc2c(c1)N(Cc1ccc(F)cc1)C(=O)c1ccccc1S2(=O)=O	-16%	-5%
CC(=O)c1ccc(NC(=O)c2cc(-c3cccs3)on2)cc1	-15%	1%
COc1ccc(C(=O)N(Cc2ccc(C(C)C)cc2)C2CCS(=O)(=O)C2)cc1 (stereo not drawn)	-10%	-14%
O=C(c1ccco1)N1CCN(C(c2ccccc2)c2nnnn2C2CCCC2)CC1 (stereo not drawn)	/	?
Cc1ccc(N2CC(C(=O)N3CCN(Cc4ccc5c(c4)OCO5)CC3)CC2=O)cc1 (stereo not drawn)	-16%	-13%
Cc1cccc(N2CCN(C(=O)Cn3ncc4c([nH]c5ccccc54)c3=O)CC2C)c1 (stereo not drawn)	-16%	-28%
COc1cccc(C2=NN(C(=O)C3CC3)C(O)(C(F)(F)F)C2)c1 (stereo not drawn)	?	-16%
CC(=O)N1CCN(c2ccc(OCC3CO[C@@](Cn4ccnc4)(c4ccc(Cl)cc4Cl)O3)cc2)CC1 (stereo partly drawn)	?	?
N#CCCn1cc(C(=O)N2CCCCC2)c(-c2ccc([N+](=O)[O-])cc2)n1	i	1%
O=C(OCc1cccc(C(F)(F)F)c1)c1ccc[nH]c1=O	-11%	3%
CCOc1ccc(C(=O)NC(C)C2COc3ccccc3O2)cc1 (stereo not drawn)	i	3%
NS(=O)(=O)c1ccc(S(=O)(=O)N2CCCC(c3ccccc3)C2)cc1 (stereo not drawn)	-1%	-21%
CC(=O)N1CCN(c2ccc(NS(=O)(=O)c3ccc(C)cc3)cc2)CC1	?	-1%
O=C(NCc1nnc(SCC(=O)N2CCCCCC2)o1)c1ccco1	i	?
COc1ccccc1Nc1nnc(SCC(=O)c2c(N)n(C3CC3)c(=O)[nH]c2=O)s1	i	-3%
COC(=O)[C@@]12CCCN1[C@H](c1ccc(-c3ccccc3)cc1)[C@H]1C(=O)N(C)C(=O)[C@H]12	i	-19%
COc1ccccc1NC(=O)COC(=O)Cn1cnc2c1c(=O)n(C)c(=O)n2C	-12%	-8%
CN=c1scc(-c2ccc(Cl)cc2)n1C	i	-2%
CCOc1ccccc1NC(=O)Cn1c(=O)n(-c2ccc(F)cc2)c(=O)c2c3c(sc21)CN(C(C)=O)CC3	0%	-1%
NC(=O)c1ccccc1NC(=O)Nc1cccc(Cl)c1Cl	-22%	-15%

Bioassay records: PubChem BioAssay, National Center for Advancing Translational Sciences (NCATS)
